NPYLR7 agonist: mosquito NPYLR7 agonism; activation, % at 10 µM; 270,000 tested, 0.15% active; HEK293T NPYLR7/Galpha15, GCaMP6s calcium fluorescence; in the data active = activation above about 40%;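 note: 0% = vehicle and 100% = reference agonist at the receptor; some compounds past the cut are filed as inactive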
NPYLR7 agonist max-min: second read-out of NPYLR7 agonist, no call of its own (marks repeat the call); activation, %; measured here: Max-Min RFU normalised activation; some inactives read as strong as hits;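 span of the calcium signal over five minutes; 0% = vehicle and 100% = native peptide agonist; compound fluorescence can raise it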
The depositor's hits bear a star. An excerpt; count on the stated rates, not on these rows.

Value order: NPYLR7 agonist	NPYLR7 agonist max-min
1) CC(C)n1nnnc1SCC(=O)Nc1sc2c(c1C(N)=O)CCCC2
  4	3
2) COC(=O)c1ccc(Cn2c(C)c(C(=O)N(C)Cc3ccc(F)cc3)sc2=O)o1
  1	-1
3) COc1ccccc1N1CCN([C@H]2CN(C(=O)c3ccncc3)C[C@@H]2O)CC1
  8	2
4) CN(C)CCNC(CC(=O)Nc1ccccc1)C(=O)O (stereo not given)
  3	0
5) CCC(Sc1nnc(CC(=O)Nc2ccccc2OC)n1C)C(=O)NC1CCCC1 (stereo not given)
  0	-1
6) Cc1ccc(S(=O)(=O)NCCC(=O)C(C#N)c2ccccn2)cc1 (stereo not given)
  4	2
7) COc1ccc(C(=O)CCCC(=O)Nc2ccc(NC(C)=O)cc2)cc1
  9	6
8) Cc1cc(C(=O)N2CCN(C(c3ccccc3)c3ccc(Cl)cc3)CC2)n(C)n1 (stereo not given)
  -6	-4
9) Fc1ccc(-c2ccc(Cn3ccnc3)cn2)c(Cl)c1
  1	-2
10) COc1ccc(NC(=O)CCC(=O)N2CCc3ccccc3C2)cn1
  -4	-6
11) CCOC(=O)C1CCCN(/C=C2\Oc3c(ccc(O)c3C)C2=O)C1 (stereo not given)
  -11	-16
12) O=c1[nH]nc(Cc2cccnc2)n1Cc1cccs1
  -4	-3
13) CCOc1ccc(C2C(C(=O)c3ccc(C)o3)=C(O)C(=O)N2CCN2CCOCC2)cc1 (stereo not given)
  -1	-1
14) Cc1ccc(Cc2nsc(N3CCCN(C(=O)Nc4cccc5ccccc45)CC3)n2)cc1
  16	21
15) COc1ccc(CC(=O)Nc2ccc(Nc3ccc(-n4nc(C)cc4C)nn3)cc2)cc1
  -2	-10

7 entries from above, with bars between the fields.
entry | Molecule | NPYLR7 agonist | NPYLR7 agonist max-min
6 | Cc1ccc(S(=O)(=O)NCCC(=O)C(C#N)c2ccccn2)cc1 (stereo not given) | 4 | 2
7 | COc1ccc(C(=O)CCCC(=O)Nc2ccc(NC(C)=O)cc2)cc1 | 9 | 6
8 | Cc1cc(C(=O)N2CCN(C(c3ccccc3)c3ccc(Cl)cc3)CC2)n(C)n1 (stereo not given) | -6 | -4
9 | Fc1ccc(-c2ccc(Cn3ccnc3)cn2)c(Cl)c1 | 1 | -2
10 | COc1ccc(NC(=O)CCC(=O)N2CCc3ccccc3C2)cn1 | -4 | -6
11 | CCOC(=O)C1CCCN(/C=C2\Oc3c(ccc(O)c3C)C2=O)C1 (stereo not given) | -11 | -16
12 | O=c1[nH]nc(Cc2cccnc2)n1Cc1cccs1 | -4 | -3

More structures.
Value order: NPYLR7 agonist	NPYLR7 agonist max-min
16) CC1(C(=O)NCc2cccs2)CCN1Cc1ccc2c(c1)OCCO2 (stereo not given)
  8	-2
17) COC(=O)C1=C(C)Nc2nc(SCC(C)C)[nH]c(=O)c2C1c1sccc1C (stereo not given)
  3	6
18) COCCn1c(C(=O)Nc2cc(Cl)ccc2OC)cc2c(=O)n(C)c(=O)n(C)c21
  1	-1
19) COc1ccccc1C(NC(=O)C1CCN(CCc2ccc(F)cc2)CC1)c1ccccn1 (stereo not given)
  -10	-5
20) CCN(C(=O)CSc1nc(C)nc2sc(C)c(C)c12)C1CCS(=O)(=O)C1 (stereo not given)
  -2	-5
21) Cc1c(C(=O)NCCCN2CCCCC2C)cnc2c(-c3cccs3)cnn12 (stereo not given)
  22	11
22) CCS(=O)(=O)NC1CCCN(C(C)c2ccc3ccccc3c2)C1 (stereo not given)
  9	5
23) CCCc1sc(C(N)=O)cc1CC
  16	12
24) O=C(c1ccc(Cl)cc1Cl)N1CCCN(c2cc(Oc3ccc(F)c(Cl)c3)ncn2)CC1
  -9	7
25) CCOc1cccc(NC(=O)C2CC(=O)N(C)C(=Nc3ccc(C)c(C)c3)S2)c1 (stereo not given)
  3	1
26) COc1ccc(-c2nc3ccc(Br)cc3c(=O)o2)c(OC)c1
  6	16
27) Cc1cccc(C(N)=O)c1NC1CCN(c2ccc(C#N)cc2)C1=O (stereo not given)
  9	6
28) O=C(CCN1CCCCC1c1nccs1)Nc1nnc(C2CC2)s1 (stereo not given)
  -2	-4
29) CC(C)c1nnc(SCc2cccnc2)c2c1cnn2-c1ccc(F)cc1
  -16	-23
30) O=S(=O)(c1ccc(Br)cc1)n1cnc2ccccc21
  2	5

A different layout for part of the listing above:
no.	molecule	NPYLR7 agonist	NPYLR7 agonist max-min
25	CCOc1cccc(NC(=O)C2CC(=O)N(C)C(=Nc3ccc(C)c(C)c3)S2)c1 (stereo not given)	3	1
26	COc1ccc(-c2nc3ccc(Br)cc3c(=O)o2)c(OC)c1	6	16

Going on with the list.
Value order: NPYLR7 agonist	NPYLR7 agonist max-min
31) CC(C)(C)n1ncc2c(=O)n(NC(=O)c3cc([N+](=O)[O-])ccc3Cl)cnc21
  0	-2
32) CCc1cccc(CC)c1NC(=O)COc1ccccc1C(N)=O
  -6	-8
33) Fc1ccc(-c2nc(N3CCN(c4ccc(F)cc4F)CC3)c3ccccc3n2)c(F)c1
  7	15
34) Cn1c(=O)[nH]c(=O)c2c1nc(CN(Cc1ccccc1)Cc1ccccc1)n2Cc1ccccc1F
  -2	51
35) CCC(C(=O)Nc1c(-c2ccc(OC)cc2)nc2ccccn12)c1ccccc1 (stereo not given)
  -8	0
36) C=CCn1c(SCC(=O)CC(=O)OCC)nc2sc3c(c2c1=O)CCCC3
  8	6
37) Cn1cc(S(=O)(=O)N2CCN(c3ccccc3)CC2)c(=O)n(C)c1=O
  1	-2
38) Cc1cc(C(=O)OCc2nc(-c3cccs3)no2)c(C)n1C1CC1
  1	5
39) COc1cccc(Cn2ccnc2CN(C(=O)c2ccco2)C2CCCCC2)c1
  12	17
40) CC(=O)NCC1=CCCN(Cc2noc(-c3ccccc3)n2)C1
  -1	-3
41) CC1(C(=O)NS(=O)(=O)c2ccccc2)CCN1C(=O)CCc1ccc(Cl)cc1Cl (stereo not given)
  5	3
42) Cc1sc2ncn(CC(O)COc3ccc(Br)cc3)c(=O)c2c1-c1ccccc1 (stereo not given)
  0	4
43) CC1c2cc(Cl)cc(Cl)c2CCN1C(=O)c1ccc(C(N)=O)nc1 (stereo not given)
  3	-1
44) N#CC(c1ccccc1)C(O)C[n+]1ccc(N)cc1 (stereo not given)
  4	1
45) Cn1nnc(SC/C=C/CSc2nnn(C)n2)n1
  8	9

Further records.
Value order: NPYLR7 agonist	NPYLR7 agonist max-min
46) Cc1cc(C(=O)N2CCN(CCCOC(c3ccc(Cl)cc3)c3ccc(Cl)cc3)CC2)c(C)o1
  27	33
47) CS(=O)(=O)c1ccc(F)c([N+](=O)[O-])c1
  2	0
48) O=C(CN1C(=O)c2ccccc2C1=O)Nc1ccccc1C(F)(F)F
  -3	-8
49) Cc1[nH]ncc1CN[C@@H]1CCCC[C@H]1NC(=O)OC(C)(C)C
  4	3
50) N#Cc1ccc(C(=O)Nc2nc(-c3ccc([N+](=O)[O-])cc3)cs2)cc1
  1	-4
51) CCC(CO)N(Cc1ccco1)C(=O)c1cccn1C (stereo not given)
  -6	-12
52) CCOc1ccc(-c2cc3c(=O)n(Cc4cccc(C(F)(F)F)c4)ccn3n2)cc1
  -1	-4
53) CC(=O)CC1(O)C(=O)N(CCCOc2ccc3ccccc3c2)c2c(C)cccc21 (stereo not given)
  8	13
54) CCN1C(=O)/C(=C\c2cccnc2)SC1=S
  4	3
55) O=C1CCCC(O)=C1N=Nc1ccc2c(c1)OCO2
  -5	-11
56) CC(NCCS(=O)(=O)c1cc(Cl)ccc1Cl)c1ccc(F)c(F)c1 (stereo not given)
  5	2
57) c1ccc(-c2ncn(CC3CCCO3)c2-c2cccn2-c2ncccn2)cc1 (stereo not given)
  -5	-6
58) Cc1cccc(Cc2cnc(NC(=O)C3=COCCO3)s2)c1
  13	14
59) NC(=O)COc1ccc(Cl)cc1-c1nccn1-c1ccc(F)c(F)c1
  14	2
60) CC(=O)Nc1ccc(S(=O)(=O)NCCc2csc3nc(-c4cccc(C)c4)nn23)cc1
  -8	-8

(cont.)
Value order: NPYLR7 agonist	NPYLR7 agonist max-min
61) CCSc1nc2ccccc2c(=O)n1Cc1ccccc1
  3	3
62) CCN(Cc1nccn1C)C(=O)c1cc(-c2cnc(C)nc2)nc2cc(F)ccc12
  1	-6
63) FC(F)(F)c1ccnc(SCc2csc(-c3ccc(Cl)cc3)n2)n1
  1	-5
64) COc1ccc(C(C)NC(=O)C2CCN(CCOc3ccc(Cl)cc3Cl)CC2)cc1OC (stereo not given)
  5	5
65) CCn1nc(CC(C)C)cc1C(=O)N(C)CC1CCN(CCc2ccc(Cl)cc2)CC1
  -5	-8
66) C=CCNC(=O)N1C[C@H]2OC(=O)N(CCc3ccc(OC)cc3)[C@H]2C1
  3	0
67) O=C(O)C1CCCN1S(=O)(=O)c1ccc(Br)cc1 (stereo not given)
  7	3
68) COCCN(CCC(=O)NC(C)c1ccccc1)c1nc(-c2cccs2)nc2ccccc12 (stereo not given)
  19	13
69) CCOCCCNC(=O)c1cc(NC(=O)Nc2ccc(C)cc2)ccc1N1CCC(C)CC1
  21	30
70) CN1CCC2(CC1)NC(=O)N(CN1CCN(C/C=C/c3ccccc3)CC1)C2=O
  0	0
71) O=C(NCC1CCCO1)C1CCN(C2CCN(C(=O)Cc3ccsc3)CC2)CC1 (stereo not given)
  0	-3
72) CN=c1scc(-c2ccccc2F)n1N=Cc1cccc(F)c1
  1	2
73) COC(=O)N1CCCC(C(=O)N(C)Cc2nc3ccccc3[nH]2)C1 (stereo not given)
  -19	-20
74) CCc1ccc(-c2cc3c(SCC(=O)Nc4cc(OC)ccc4OC)nccn3n2)cc1
  -2	-7
75) COCC1(NC(=O)c2cnc(C(C)C)[nH]c2=O)CCCC1
  -2	-8

(listing goes on)
Value order: NPYLR7 agonist	NPYLR7 agonist max-min
76) CNc1cccc(-c2cccc(C(C)=O)c2)n1
  3	-1
77) Cc1cc(C)cc(NC(=O)CSc2nc3c([nH]c4ccccc43)c(=O)n2C)c1
  2	17
78) Cc1cc(C)cc(OCCC(=O)Nc2cc(C3CC3)nn2C2CCS(=O)(=O)C2)c1 (stereo not given)
  2	1
79) Cc1c([N+](=O)[O-])c2ccc(O)cc2n1-c1ccccc1
  -1	-4
80) CCN(C)c1nc(C)nc2c1CN(C(=O)Nc1ccc(C)c(C)c1)CC2
  15	12
81) O=C(NCCn1ncc2ccccc2c1=O)c1cccc2c1NCCC2
  10	7
82) COc1ccc(N2C(=O)CSC2c2ccc(NC(=O)c3cc(OC)cc(OC)c3)cc2)cc1 (stereo not given)
  1	6
83) Cc1cc(N(C)C(C)c2sc(C)nc2C)nc(-c2ccncc2)n1 (stereo not given)
  1	-1
84) O=C(O)c1csc(-c2cnn(-c3ccccc3)n2)n1
  0	-2
85) CCNC(=O)N(C)c1c(CC)nc2ccc(C(=O)N(C)CCCN(C)C)cn12
  0	30
86) CN1CCN2CCN(C(=O)CCc3cccc(Cl)c3)CC2C1=O (stereo not given)
  11	8
87) Nc1nnc(SCC(=O)c2cccc(C(F)(F)F)c2)s1
  -4	3
88) CCCCCCCCNC1=CC(=O)C(=O)c2ccccc21
  4	1
89) O=C(O)C1COC2(CCCCC2)N1C(=O)c1ccccc1Cl (stereo not given)
  9	7
90) Cc1ccc(-c2cc(NC(=O)c3ccc(F)cc3F)n(-c3ccccc3)n2)cc1
  12	-2

Next structures follow:
Value order: NPYLR7 agonist	NPYLR7 agonist max-min
91) O=C(NC1CCSc2ccc(Cl)cc21)C1CCCN1C(=O)c1ccco1 (stereo not given)
  0	-2
92) CCCC(C)C(=O)Nc1cc(S(=O)(=O)N2CCCCC2)ccc1C (stereo not given)
  3	4
93) Cc1ccc2nc(Cn3nnn(-c4ccccc4Cl)c3=O)cc(=O)n2c1
  5	3
94) CCCCCCSc1nc2c(c(=O)[nH]c(=O)n2C)n1CCCCC
  2	22
95) COc1ccc(C(=O)CSc2nnc(-c3cc(OC)cc(OC)c3)n2C2CCCCC2)cc1
  16	15
96) CN(CC(=O)NC(C)(C)C)C(=O)c1sc2ccccc2c1Cl
  5	1
97) COc1cc2ccccc2cc1C(=O)NCC1(NS(C)(=O)=O)CCCCC1
  3	1
98) CCn1ncc(C(=O)NCC(C)Cn2nc(C)cc2C(F)(F)F)c1C (stereo not given)
  14	10
99) COC(=O)CCC1(C(=O)OC)CC2(CC2)N=N1 (stereo not given)
  -2	-6
100) COCCN(CC(=O)N1CCc2sccc2C1COc1ccc(C)cc1)C(=O)c1cccc(Cl)c1 (stereo not given)
  -2	3
101) c1cnn(-c2ccc(CNCc3ccc(N4CCOCC4)cc3)cn2)c1
  -2	-3
102) COc1ccc2[nH]c3c(c2c1)CCN(C(=O)/C=C/c1ccc(OC)c(OC)c1Cl)C3C(C)Cc1ccc2c(c1)OCO2 (stereo not given)
  4	-5
103) COC(=O)c1ccc(OC(=O)C2CCCCC2)c(OC)c1
  12	6
104) Cc1cccc(OC(F)F)c1NC(=O)C1(C)CCN1C(=O)CCc1ccccc1 (stereo not given)
  8	6
105) O=C1COc2ccc(NC(=O)c3cc(C4CC4)n(C4CCS(=O)(=O)C4)n3)cc2N1 (stereo not given)
  1	-1

Other compounds follow.
Value order: NPYLR7 agonist	NPYLR7 agonist max-min
106) CCc1nc2n(n1)C(=O)C(C(c1ccc(C)cc1)N1CCC(O)CC1)S2 (stereo not given)
  -1	-8
107) O=C(NCC1CCCN(Cc2ccco2)C1)C(=O)N1CCCCCC1 (stereo not given)
  18	6
108) Cc1cc(NC(=O)CNC(c2ccc(F)cc2)C(C)C)n(-c2ccc(F)cc2)n1 (stereo not given)
  -1	39
109) CC(C)[C@H](NC(=O)OCC1c2ccccc2-c2ccccc21)C(=O)NCCCn1cccn1
  -12	-17
110) Cc1cc(OC(=O)C(C)(C)C)c([N+](=O)[O-])c(=O)[nH]1
  0	-1
111) CCN(CC)CCNC(=O)C12CC3CC(CC(C3)C1)C2
  9	6
112) CC1(C(=O)NS(=O)(=O)c2ccccc2Cl)CCN1C(=O)Cc1ccccc1 (stereo not given)
  -1	-3
